# Compound activity: PubChem, ICCB-Longwood Screening Facility, Harvard Medical School
# Vaccinia pol inh: vaccinia E9 polymerase processive synthesis inhibition; normalized absorbance, % (concentration not given with the values); AID 493162; in vitro processive DNA synthesis, absorbance read-out; hits give low values; some inactives read as strong as hits; 0.94% of 46,000 active;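 active = replicate mean up to 90% and picked by the depositor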;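 also: 100% = median of the test wells of a plate; 100 nL library stock went into each well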
# The depositor's hits bear a star. This is a subset. The share of hits here may be higher or lower than overall.
# Start of the data: the first four records as a preview:
SMILES,Vaccinia pol inh
O=C(Nc1cc(N2CCOCC2)ncn1)c1ccccc1,103
Cc1ccc2c(C(=O)CNc3nncs3)c(C)[nH]c2c1,100
N#Cc1c(-c2ccccc2)c[nH]c1N,119
CC1=CCC2C(=O)N(c3ccc(C(=O)Nc4ccccc4)cc3)C(=O)C2C1 (stereo unspecified),100

# All compounds of this part, from the first entry:
SMILES,Vaccinia pol inh
O=C(Nc1cc(N2CCOCC2)ncn1)c1ccccc1,103
Cc1ccc2c(C(=O)CNc3nncs3)c(C)[nH]c2c1,100
N#Cc1c(-c2ccccc2)c[nH]c1N,119
CC1=CCC2C(=O)N(c3ccc(C(=O)Nc4ccccc4)cc3)C(=O)C2C1 (stereo unspecified),100
O=C(/C=C/c1ccccc1)Nc1ccc(Br)cc1,100
Cc1ccc(CSCC(=O)NCCc2ccc(Cl)cc2)cc1,112
CC(=O)OC1CC(C)(C)N(O)C(C)(C)C1,100
Cc1ccccc1C(=O)Nc1nc(SCc2ccc(Cl)cc2)n[nH]1,104
O=C(CSc1nccn1-c1ccccc1)Nc1ccc2c(c1)OCO2,100
NC(N)=Nc1nc(CSCC/C(N)=N\S(N)(=O)=O)cs1,101
O=C(Nc1cc(S(=O)(=O)c2ccccc2)cs1)c1ccc(Cl)cc1,114
CC(=O)Nc1sc2c(c1CN1CCCCC1)CCCC2,86
Cc1ccc2c(c1)C1C=CCC1C(c1ccc(N=Cc3ccccc3)cc1)N2 (stereo unspecified),97
O=C(NCCN1CCCCC1)c1ccccn1,101
CCOc1ccc(NC(=O)CN2C(=O)S/C(=C/c3ccc(Cl)cc3)C2=O)cc1,99
CN(C(=O)CN(CCO)CC(=O)N(C)C(C)(C)Cc1ccccc1)C(C)(C)Cc1ccccc1,100
CCN(C(=O)C1CCN(S(=O)(=O)c2cccc3nonc23)CC1)c1ccccc1,100
O=C(Nc1nc(-c2ccc(Cl)cc2)cs1)C1c2ccccc2Oc2ccccc21,100
CN1CCCC1c1cccnc1N (stereo unspecified),96
CCCOc1ccc2c3c(c(=O)oc2c1)CCC3,100
CCN(CC)CCC(O)(c1ccccc1)C1CCCCC1 (stereo unspecified),100
COc1ccc2nc(NC(=O)C(C)C)sc2c1,88
COc1ccc(-c2csc3nc(C)cc(C)[n+]23)cc1,104
CCOC(=O)c1c(-c2ccccc2)csc1NC(C)=O,92
Nc1ccc(C(=O)N2CCCCC2)cc1,101
FC(F)(F)Oc1ccc(C2c3ccsc3CCN2Cc2ccc[nH]2)cc1 (stereo unspecified),89
CC(C)N(Cc1nc(-c2ccccc2)no1)C(=O)CCc1ccccc1,99
CN1CCN(C(=O)c2cccc3c2OC(C)(C)C3)CC1,122
COc1ccc(C(=O)C(O)c2ccc(OC)cc2)cc1 (stereo unspecified),99
CC(C)N(C(=O)CSc1ncn[nH]1)c1ccccc1,96

# An excerpt of these results, as tab-separated lines:
compound	Vaccinia pol inh
COc1ccc2nc(NC(=O)C(C)C)sc2c1	88
COc1ccc(-c2csc3nc(C)cc(C)[n+]23)cc1	104
CCOC(=O)c1c(-c2ccccc2)csc1NC(C)=O	92
Nc1ccc(C(=O)N2CCCCC2)cc1	101
FC(F)(F)Oc1ccc(C2c3ccsc3CCN2Cc2ccc[nH]2)cc1 (stereo unspecified)	89

# Later entries
SMILES,Vaccinia pol inh
O=C(O)C1CCCCN1S(=O)(=O)c1cccc2nsnc12 (stereo unspecified),101
Cn1c(/C=N/O)nc2ccccc21,100
Cc1nc2n(CC(=O)c3ccccc3)c3ccccc3n2n1,102
CCSc1nc(-c2ccc(C)cc2)cc(C(F)(F)F)c1C#N,101
CC1(C)CC(=O)C2=C(C1)OC1=C(C(=O)CC(C)(C)C1)C2c1ccccc1Cl,104
CC1CC(C)CN(CCCNS(=O)(=O)c2cccc3cccnc23)C1 (stereo unspecified),98
CCOc1ccc(OCC)c(NC(=O)c2ccc3c(c2)N(Cc2ccccc2)C(=O)CS3=O)c1 (stereo unspecified),101
O=S(=O)(c1cccc(F)c1)N1CCc2sccc2C1c1ccc(OC(F)(F)F)cc1 (stereo unspecified),107
CC1CN(C(=O)CCC(=O)NC2CCCC2)c2ccccc2O1 (stereo unspecified),102
CCOC(=O)c1c(C)c(C(=O)N2CCCCCC2)c(C)n1CC,103
Cn1cc(CC(=O)NCCN2CCN(c3cccc(Cl)c3)CC2)c2ccccc21,99
NC(=O)c1c(NC(=O)Nc2ccccc2)sc2c1CCCC2,100
O=C(c1cccnc1)N1CCN(C(c2ccccc2)c2ccccc2)CC1,100
CCOc1ccc(NC(=O)CCS(=O)(=O)c2ccc3c(c2)OCC(=O)N3)cc1,103
COc1cccc(OCC(=O)N2CCCc3ccccc32)c1,82
c1ccn2cc(-c3ccc4c(c3)OCO4)cc2c1,101
O=C(Nc1ncccn1)c1c[nH]c2ccccc2c1=O,98
CCCNC(=O)c1ccc2c(c1)ncn2-c1ccc(OCc2ccccc2)cc1,116
C=CCN1C(=O)/C(=C2\SC(N3CCCCC3)=NC2=O)c2ccccc21,100
O=S(=O)(c1ccccc1)c1cc(O)ccc1O,100
CCCNC(=O)c1ccc(OC)c(OC(=O)c2ccccc2)c1,96
COc1ccc(Cl)cc1NC(=O)CSc1nc2nccnc2c(=O)n1CC1CCCO1 (stereo unspecified),99
COc1cccc(NC(=O)COC(C)=O)c1,100
Nc1ncn(C(=O)c2ccccc2)n1,100
O=C(NCCN1CCOCC1)c1sc2cc(Cl)ccc2c1Cl,113
Cc1ccc(C)c(C2C3CCCC=C3C(C#N)=C(N)C2(C#N)C#N)c1 (stereo unspecified),101
COC(CNC(=O)c1cccc(-n2c(=S)[nH]c3cc(Cl)ccc3c2=O)c1)OC,105
CC(C)NC(CC(=O)Nc1ccccc1Cl)C(=O)O (stereo unspecified),95
O=C1CC(c2ccco2)Sc2ccccc2N1 (stereo unspecified),101
Cc1ccccc1OCC1CN(CN(CC(C)C)CC(C)C)C(=O)O1 (stereo unspecified),100

# Part of the list above in another layout.
Structure	Vaccinia pol inh
COc1cccc(NC(=O)COC(C)=O)c1	100
CC(C)NC(CC(=O)Nc1ccccc1Cl)C(=O)O (stereo unspecified)	95
Cc1ccc(C)c(C2C3CCCC=C3C(C#N)=C(N)C2(C#N)C#N)c1 (stereo unspecified)	101
O=C1CC(c2ccco2)Sc2ccccc2N1 (stereo unspecified)	101

# Next section
SMILES,Vaccinia pol inh
O=C(Nc1sc2c(c1C(=O)O)CCC2)c1ccccc1,102
FC(F)(F)C1(C(F)(F)F)N=C(N2CCOCC2)OC(N2CCOCC2)=N1,101
CC1CC(N(C(=O)c2ccc(Cl)cc2)c2ccccc2)c2ccccc2N1C(=O)c1ccco1 (stereo unspecified),100
Cc1cc2ccccc2n2c(SCC(=O)NCC3CCCO3)nnc12 (stereo unspecified),112
Cc1cc(C(=O)N2CCC(C)CC2)nc2c1c(C)nn2-c1ccccc1,105
NC(=O)C1CCN(c2ncccn2)CC1,118
S=c1nc(-c2ccccc2)oc2c1CCCC2,100
CCC1SC(CC)C(=O)N(CC(=O)Nc2ccccc2)C1=O (stereo unspecified),98
C=CCNS(=O)(=O)c1ccc(C)cc1,100
NC(=O)c1c(N)c(C(N)=S)n2c1CCC2,100
CN(C(=O)c1ccccc1)c1ccc(OCC(=O)N2CCc3ccccc3C2)cc1,92
O=C(CCn1c(=O)oc2ccccc21)N(Cc1ccccc1)c1ccccn1,100
Cc1ccccc1Cn1c(Cc2ccccc2)nc2ccccc21,103
O=C(Cn1cccc1C(=O)c1ccccc1)NCc1ccccn1,103
CCCCC(CC)CN1CN(CC(CC)CCCC)CC(C)(N)C1 (stereo unspecified),100
COc1cc(C(F)(F)F)c(C(=O)N(C)Cc2ccc(Cl)c(Cl)c2)cn1,95
CCOC(=O)c1oc2ccccc2c1NC(=O)c1cccs1,96
O=C(Nc1nc2ccccc2s1)c1ccc(Cl)s1,103
COc1ccc(-n2nc(C(=O)NCC(=O)NC3CCCC(C)C3C)c3ccccc3c2=O)cc1 (stereo unspecified),102
O=C(O)CSc1nc2ccc(Br)cc2[nH]1,100
Oc1ccc(OCc2ccccc2)c(F)c1,106
CCOC(=O)c1cnc(Nc2nc3ccccc3o2)nc1CN1CCN(c2ccccc2)CC1,110
O=C(CCOc1ccccc1)Nc1nnc(-c2ccc(Cl)cc2)o1,95
O=C(OCc1c(Cl)nc2sccn12)c1ccc(F)cc1Cl,88
O=C(CSc1nc2ccccc2[nH]1)Nc1cccc(C(F)(F)F)c1,104
O=C(CSc1c[nH]c2ccccc12)N1CCOCC1,101
CC1CSC(Nc2cccc(C(F)(F)F)c2)=N1 (stereo unspecified),100
S=c1nc[nH]c2c1ncn2CN1CCCCC1,100
CCn1c(=O)c2cc(C(=O)N(C)CC(OC)OC)sc2c2ccccc21,100
CC(C)c1nccn1CCC(=O)O,100
COc1cccc(C2C3=C(CC(C)(C)CC3=O)Nc3ccccc3N2C(C)=O)c1 (stereo unspecified),100
Cc1c(CC(=O)O)c(=O)oc2c(C)c3occ(-c4ccc(Br)cc4)c3cc12,65*
O=C(Cn1ncc2ccccc21)Nc1ccc(Br)cn1,104
C=C1C(C(=O)NCc2ccncc2)C1C(=O)NCc1ccncc1 (stereo unspecified),103
Cc1cccc2c1-c1sc(C(=O)NC3CCCC(C)C3C)cc1CO2 (stereo unspecified),100
Cc1sc2ncnc(SCC(=O)O)c2c1C,100
CN1C(=O)S/C(=C\c2cc(Cl)c(OCC(=O)O)c(Cl)c2)C1=O,98
CC(C)CCNC(=O)C1CCC(Cn2c(=O)[nH]c3ccccc3c2=O)CC1 (stereo unspecified),102
O=C(O)CCCC=C(c1ccccc1)c1ccccc1,94
COc1cc(NS(=O)(=O)c2ccc(NC(=O)c3ccccc3)cc2)nc(OC)n1,101
CC(C)C(C)(C#N)Nc1ccccc1 (stereo unspecified),88
CC(C)Cn1cc(C(=O)N2CCCC2)c2c3ccccc3n(C)c2c1=O,100
O=c1c2sccc2[nH]c(=S)n1CC1CCCO1 (stereo unspecified),98
CCc1ccc(C2C(C#N)=C(N)N(N3CCOCC3)C3=C2C(=O)CC(C)(C)C3)cc1 (stereo unspecified),100
O=C(CSc1nc2ccccc2s1)NCCC12CC3CC(CC(C3)C1)C2,100
Cc1cc(C)n2nc(-c3ccc(C(C)(C)C)cc3)cc2n1,99
CCOC(=O)c1cc(S(=O)(=O)N(C)Cc2ccccc2)cn1C,98
Cc1ccc(S(=O)(=O)Nc2cccc3ccccc23)cc1,100
CSc1nc2cc(Oc3ccc4ccccc4c3)c(Cl)cc2[nH]1,95
Cc1c(CNC2CCCc3ccccc32)c(C(=O)O)c(C)n1Cc1c(F)cccc1Cl (stereo unspecified),106
# Continuation:
SMILES,Vaccinia pol inh
CC(=O)NC1C(=O)Nc2ccccc2S(=O)(=O)C1c1ccccc1 (stereo unspecified),102
CC1=Nc2cccc3cccc(c23)N1c1ccccc1,93
O=C(O)c1ccc(/C=N/N2C(=O)c3cccc4cccc(c34)C2=O)cc1,102
O/C(=C\c1nc2ccccc2[nH]1)C(F)(F)F,98
NC(=O)C(F)(F)c1ccccc1,101
CN(C)c1ccc(NC(=O)COC(=O)c2cc(Br)ccc2Cl)cc1,101
Cc1nn2c(-c3ccccc3)nnc2c2ccccc12,80
O=C1C(c2ccccc2)=Nc2ccccc21,96
COc1ccc(-c2c3c(nc4sc(C(=O)N5CCCCCC5)c(N)c24)CC(C)(C)CC3=O)cc1,100
CC1(C)CC(=O)c2c(Cc3ccccc3)noc2C1,108
CC(=O)Nc1ccc(NC(=O)CCSc2ccccc2)cc1,99
CCOc1ccc(N(CC)S(=O)(=O)c2cccc3nsnc23)cc1,100
O=C(/C=C/c1ccco1)C1(O)CCCCC1,91
Oc1[nH]c2ccccc2c1C=NCCc1ccccc1,100
COC(=O)C1=C(N)N(c2ccc(S(N)(=O)=O)cc2)C2=C(C(=O)CCC2)C1c1ccc(OC)cc1 (stereo unspecified),101
Cc1cc(C)c(S(=O)(=O)N(C)c2ccccc2)c(C)c1,101
Oc1ccccc1C1N(Cc2ccccc2)CCN1Cc1ccccc1,100
O=C1/C(=C\c2cccc(Cl)c2)Cc2ccccc21,94
Cn1c(=O)c2c(O)c(C=NCc3ccccc3)c(=O)n(C)c2n(C)c1=O,98
O=C(CCn1nnc2ccccc21)OCC(=O)c1ccc(Cl)c(Cl)c1,91
COc1cccc2c(=O)n(CC(=O)N3CCCCC3)ccc12,100
COc1cccc(-c2cc(C(=O)NC(C)C)no2)c1,86
O=S(=O)(c1ccccc1)N(Cc1ccccc1)c1ccccn1,101
CCS(=O)(=O)C(=C1Nc2ccccc2N1)S(=O)(=O)CC,100
CN(C)/N=N/c1nc[nH]c1C(N)=O,92
Cc1sc2ncnc(NCc3cccnc3)c2c1C,104
COc1ccc(-c2cnc(N)s2)cc1,98
CCC(=O)N1CCc2cc(OC)c(OC)cc2C1COc1ccc(F)cc1 (stereo unspecified),97
Cc1cccc(N2C(=O)c3sc4nccc(=O)n4c3C2=O)c1,96
CC(=O)Oc1ccccc1N(C(C)=O)S(=O)(=O)c1ccc(C)cc1,100
Cc1ccc(NC(c2ccc(O)cc2)P(=O)(c2ccccc2)c2ccccc2)cc1 (stereo unspecified),99
C/C(Nc1ccccc1)=C1\C(=O)C=C(c2ccco2)CC1c1ccco1 (stereo unspecified),100
Cc1ccc(N2C(=O)N(CC(=O)Nc3ccccc3)c3ccccc3S2(=O)=O)cc1Cl,102
CCC1C/C(=C\c2sccc2C)C(=O)/C(=C/c2sccc2C)C1 (stereo unspecified),104
O=C(COC(=O)C1CCC1)c1cc2ccccc2o1,102
